# KCNQ2 inh: KCNQ2 potassium channel inhibitors, primary screen, cell-based, CHO-K1, FluxOR thallium flux, B-score (AID 2156); Potassium voltage-gated channel subfamily KQT member 2 (Rattus norvegicus), O88943; 20 min; active compounds read low; only compounds with negative scores are shown here; some inactives read as strong as hits; B-score at 10 µM; 1.1% of 310,000 active;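 active = fluorescence ratio B-score at most minus 3 library SDs, with starting brightness B-score within 2 library SDs, cut at about -5.5 in these data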
# Target sequence (O88943 whole entry, looked up): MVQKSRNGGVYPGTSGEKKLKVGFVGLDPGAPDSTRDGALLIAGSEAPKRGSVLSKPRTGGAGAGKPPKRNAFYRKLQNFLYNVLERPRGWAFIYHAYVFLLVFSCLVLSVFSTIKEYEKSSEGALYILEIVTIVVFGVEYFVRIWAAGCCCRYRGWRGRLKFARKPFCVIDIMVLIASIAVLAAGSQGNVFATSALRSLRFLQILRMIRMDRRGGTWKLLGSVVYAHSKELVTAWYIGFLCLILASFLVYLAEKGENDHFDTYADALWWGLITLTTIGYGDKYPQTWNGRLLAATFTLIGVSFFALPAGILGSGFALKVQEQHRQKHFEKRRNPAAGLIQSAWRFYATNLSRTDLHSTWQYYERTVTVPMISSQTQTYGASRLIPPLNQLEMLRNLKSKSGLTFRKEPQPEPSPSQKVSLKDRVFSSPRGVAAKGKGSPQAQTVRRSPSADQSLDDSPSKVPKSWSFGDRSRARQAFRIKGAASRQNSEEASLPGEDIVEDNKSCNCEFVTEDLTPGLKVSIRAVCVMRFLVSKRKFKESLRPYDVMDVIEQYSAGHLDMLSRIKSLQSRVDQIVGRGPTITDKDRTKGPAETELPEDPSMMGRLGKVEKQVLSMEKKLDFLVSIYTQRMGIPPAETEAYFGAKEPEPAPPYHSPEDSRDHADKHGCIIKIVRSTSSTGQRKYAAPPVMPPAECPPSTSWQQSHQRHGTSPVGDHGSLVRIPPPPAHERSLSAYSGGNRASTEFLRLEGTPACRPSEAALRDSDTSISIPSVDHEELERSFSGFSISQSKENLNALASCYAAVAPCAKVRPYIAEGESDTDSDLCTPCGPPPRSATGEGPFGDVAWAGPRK
# KCNQ2 inh baseline: also measured in KCNQ2 inh; calls as there; B-score; measured here: initial fluorescence intensity artifact check;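 brightness before thallium and not channel activity; 0 = typical well and far values either way flag optical interference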
# * hit, by the source's call; i = inactive.
KCNQ2 inh	KCNQ2 inh baseline	mol
i	-0.19	Cc1cc(Cl)c2oc(C(=O)NCCC3CCCCO3)c(C)c2c1 (stereo not given)
i	-1.8	COc1ccc(C(C)=O)cc1CSc1nnc(-c2ccncc2)n1C
i	0.84	CC(=O)c1ccccc1NC(=O)COC(=O)/C(=C/c1ccccc1)n1nnnc1C
i	1.3	CCC(=O)N1N=C(c2ccc(Cl)cc2)CC1c1ccco1 (stereo not given)
i	2.3	CS(=O)(=O)N(CC(=O)N1CCC(C(N)=O)CC1)C1CCCCC1
i	0.45	CCOC(=O)CSc1nc2ccc(NC(C)=O)cc2s1
-6.5*	1.2*	CCOC(=O)CN1C(=O)C(C)(C)Oc2ccc(C(=O)Nc3ccccc3OC)cc21
i	0.04	Cn1c(=O)c2ncn(CC(=O)Nc3cc(C(F)(F)F)ccc3N3CCOCC3)c2n(C)c1=O
i	-0.93	Cc1cccc(CC(Cc2nc3ccccc3[nH]2)c2nc3ccccc3[nH]2)c1 (stereo not given)
-7.6*	-1.3*	Cc1ccccc1-n1nc2c(c1NC(=O)c1cc3ccccc3o1)CS(=O)(=O)C2
i	0.84	CCCc1[nH][nH]c(=O)c1C(c1ccc(Br)cc1)C(C#N)C#N (stereo not given)
i	-0.21	COc1cccc(C2=CC(c3ccc(N(C)C)cc3)n3nnnc3N2)c1 (stereo not given)
i	1.4	CN1CCc2c(sc(NC(=O)c3ccc(S(=O)(=O)N4CCc5ccccc54)cc3)c2C(N)=O)C1
i	1.6	O=c1cc(-c2ccc(Cl)cc2)[nH][nH]1
i	0.55	COc1ccc(OC)c(NC(=O)c2ccccc2N(C)S(=O)(=O)c2ccc(C)cc2)c1
i	1.1	Cc1ccc(S(=O)(=O)NCC(=O)N2CCN(c3ccc(F)cc3)CC2)cc1
i	0.54	COc1ccc(C)cc1NC(=O)C1COc2ccccc2O1 (stereo not given)
i	-0.08	O=C(NCc1cccs1)c1csc2ccccc12
i	0.62	CC(C)CN(C(=O)COC(=O)Cc1cccc2ccccc12)c1c(N)n(Cc2ccccc2)c(=O)[nH]c1=O
i	-1	CC1CCCN(S(=O)(=O)c2cccc3nonc23)C1 (stereo not given)
i	2.4	CCCSc1ccc(-c2nn(-c3ccccc3)cc2/C=C(/C#N)C(=O)N2CCOCC2)cc1
i	0.11	O=C(NC1CCCCC1)c1ccc(Cl)c(NC(=O)c2ccccc2F)c1
i	0.39	CCc1noc(C)c1C(=O)Nc1nc(-c2ccc(OC)cc2OC)cs1
i	-0.45	Cc1nc2sc(C(c3ccccc3)N3CCC(O)CC3)c(O)n2n1 (stereo not given)
i	-1.5	O=C(C(=O)c1ccc(O)cc1)c1ccccc1
i	2.6	O=C(CC1N=C2c3ccccc3N=C(SCc3ccccc3Cl)N2C1=O)NCc1ccco1 (stereo not given)
i	-0.49	CCCCC(=O)Nc1cccc(NC(=O)c2ccccc2Br)c1
i	2.5	Cn1c(=O)[nH]c(=O)c2c1nc(NCCCn1ccnc1)n2Cc1cccc(Br)c1
i	0.01	Fc1cccc(CSc2nnc3c(n2)[nH]c2ccccc23)c1
i	5.5	Cc1cc(C)cc(N=Cc2[nH]c3ccc(Br)c(Cl)c3c2O)c1
i	-0.67	CCOc1ccc(NC(=O)CN2C(=O)COc3ccc(S(=O)(=O)N4CCCCC4)cc32)cc1
i	-0.68	O=C(Nc1ccccc1)Nc1ccc(NC(=O)c2ccccc2O)cc1
i	1.3	CCCCn1c(=O)c(CCC(=O)OCC(=O)NC(=O)NCCC(C)C)nc2ccccc21
i	1.5	O=c1c(/C=C(\O)c2ccc(F)cc2)nc2ccccc2n1-c1ccccc1
i	-0.61	CCc1sc(C(=O)NCc2ccco2)cc1C
i	-0.51	Cc1cc(C(=O)N2CCCC(N3CCN(c4cccc(C(F)(F)F)c4)CC3)C2)c(C)o1 (stereo not given)
i	-1.3	CCOCCCn1c(SCC(=O)NCc2ccco2)nc2c(sc3ccccc32)c1=O
i	-0.12	CCOC(=O)NC(NCC(O)c1ccccc1)(C(F)(F)F)C(F)(F)F (stereo not given)
i	4.3	S=C(NCC1CCCO1)N1CCN(c2nc(-c3ccc(Cl)cc3)cs2)CC1 (stereo not given)
i	-0.45	CCN1CCN(CCNC(=O)c2ccc3nc(-c4cccc(C)c4)c(-c4cccc(C)c4)nc3c2)CC1
i	0.72	C=C(C)[C@@H]1CC=C(CN2CCC(N3CCC(C(=O)N4CCCC4)CC3)CC2)CC1
i	0.92	CN(CC(=O)Nn1cnnc1)S(=O)(=O)c1ccc(Br)cc1
i	-0.2	COc1ccc(OC)c(CN2C(=O)c3ccccc3C2C(=O)NCc2cccnc2)c1 (stereo not given)
i	-0.7	CCOC(=O)C1(Cc2cccc(OC)c2)CCCN(Cc2nccn2CC)C1 (stereo not given)
i	0.01	CS(=O)(=O)N(CCc1ccccc1)CC(=O)N1CCN(Cc2ccccc2)CC1
i	0.03	Cc1ccc2nc(N3C(=O)C(O)=C(C(=O)c4ccco4)C3c3cccs3)sc2c1 (stereo not given)
i	-0.25	Cn1cc(/C=N/n2cnc3scc(-c4ccccc4)c3c2=O)c2ccccc21
i	0.08	O=C(CSc1nnc(CNC(=O)c2cccc(C(F)(F)F)c2)o1)NC1CCCCC1
i	1.8	Cn1cccc1C(=O)NC(=O)COC(=O)c1cc([N+](=O)[O-])ccc1Cl
i	-0.55	O=C(CSc1ccc(-c2ccccn2)nn1)Nc1ccccc1
i	1.3	CN(CC(=O)Nc1ccc(Cl)cc1)CC(=O)Nc1cc(Cl)ccc1C#N
i	0.1	COc1ccc(CCN2C(=NC(=O)CC(C)C)SC3CS(=O)(=O)CC32)cc1OC (stereo not given)
i	0.21	CC(C(=O)Nc1ccc(O)cc1C(=O)O)N1C(=O)/C(=C\c2cccs2)SC1=S (stereo not given)
i	0.06	O=C(COC(=O)C1CC(=O)N(Cc2ccccc2)C1)Nc1ccc(Cl)cc1F (stereo not given)
i	0.75	O=C(NCC1CC1)[C@@H]1C[C@H]1[C@@H](NP(=O)(c1ccccc1)c1ccccc1)c1ccccc1
i	-0.1	CCOc1ccc(N2C(=O)/C(=C/c3cccs3)N(CC(=O)OC)C2=S)cc1
i	-0.74	Cc1cccc2sc(NC(=O)C3CC3)nc12
i	-0.55	Cc1cc(C)c(S(=O)(=O)N2CCCCC2)cc1N(C)S(=O)(=O)c1ccc(Cl)cc1
i	1.7	CC(=O)/C=C1\SC(CC(=O)O)C(=O)N1c1ccccc1 (stereo not given)
i	1.3	CC(=O)C(Sc1nc(N(C)C)nc(N(C)C)n1)C(=O)Nc1ccccc1 (stereo not given)

# A run of entries of the results above, as a working copy:
KCNQ2 inh	KCNQ2 inh baseline	mol
i	-0.19	Cc1cc(Cl)c2oc(C(=O)NCCC3CCCCO3)c(C)c2c1 (stereo not given)
i	-1.8	COc1ccc(C(C)=O)cc1CSc1nnc(-c2ccncc2)n1C
i	0.84	CC(=O)c1ccccc1NC(=O)COC(=O)/C(=C/c1ccccc1)n1nnnc1C
i	1.3	CCC(=O)N1N=C(c2ccc(Cl)cc2)CC1c1ccco1 (stereo not given)

# Reformatted field by field: entries from further up
canonical_smiles: CCN1CCN(CCNC(=O)c2ccc3nc(-c4cccc(C)c4)c(-c4cccc(C)c4)nc3c2)CC1
  KCNQ2 inh: i
  KCNQ2 inh baseline: -0.45
canonical_smiles: C=C(C)[C@@H]1CC=C(CN2CCC(N3CCC(C(=O)N4CCCC4)CC3)CC2)CC1
  KCNQ2 inh: i
  KCNQ2 inh baseline: 0.72
canonical_smiles: CN(CC(=O)Nn1cnnc1)S(=O)(=O)c1ccc(Br)cc1
  KCNQ2 inh: i
  KCNQ2 inh baseline: 0.92
canonical_smiles: COc1ccc(OC)c(CN2C(=O)c3ccccc3C2C(=O)NCc2cccnc2)c1 (stereo not given)
  KCNQ2 inh: i
  KCNQ2 inh baseline: -0.2

# Arranged by the number under KCNQ2 inh baseline (descending): 3 from the list above.
KCNQ2 inh	KCNQ2 inh baseline	mol
i	1.5	O=c1c(/C=C(\O)c2ccc(F)cc2)nc2ccccc2n1-c1ccccc1
i	0.92	CN(CC(=O)Nn1cnnc1)S(=O)(=O)c1ccc(Br)cc1
i	0.08	O=C(CSc1nnc(CNC(=O)c2cccc(C(F)(F)F)c2)o1)NC1CCCCC1

# Following part.
KCNQ2 inh	KCNQ2 inh baseline	mol
i	0.03	CC(C)=C1C2CCC1C(C(=O)Nc1cc(C)cc(C)c1)C2C(=O)O (stereo not given)
i	0.01	COC(=O)c1c(NC(=O)c2cccnc2Cl)sc(C(=O)N(C)C)c1C
i	-0.61	O=C(CN1CCCN(S(=O)(=O)c2ccc(Br)cc2)CC1)Nc1ccc2cn[nH]c2c1
i	0.66	COc1ccc(-c2nnc(SCC(=O)Nc3ccc(C(=O)O)cc3)n2-c2ccc(Cl)cc2)cc1
i	1.3	CN(c1ccccc1)c1nc(-n2ccnc2)nc(-n2ccnc2)n1
i	-0.67	C/C(=N/NC(=O)CN(c1ccccc1)S(=O)(=O)c1ccccc1)c1ccccc1O
i	1.4	C=CCN1C(=O)c2ccc(C(=O)N(CC(C)C)c3c(N)n(CCCC)c(=O)[nH]c3=O)cc2C1=O
i	1.8	CC(=O)NS(=O)(=O)c1ccc(NC(=O)COc2ccc(C(=O)c3ccccc3)cc2)cc1
i	1.3	CN(CCOc1ccccc1)C(=O)c1cc(S(=O)(=O)N2CCCCC2)ccc1Cl
i	-0.53	COc1ccc(/C=C2/Sc3ccc(C(=O)NCCN4CCCCCC4)cc3NC2=O)cc1
i	1.9	O=C(CCCC(=O)OCC(=O)c1ccc(Cl)cc1)NC1CCCCC1
i	0.05	Cc1nn(C)c(Oc2cccc(Cl)c2)c1C(=O)Nc1ccc(F)cc1
i	0.89	COc1cccc(NC(=S)N(Cc2ccccn2)Cc2ccccc2Cl)c1
i	-0.01	Cc1cccn2c(=O)c3cc(C#N)c(=NC(=O)c4cccs4)n(CC(C)C)c3nc12
i	-2	O=C(CN1CCN(c2cccc(Cl)c2)CC1)NC1CCCc2ccccc21 (stereo not given)
i	-2.1	Cc1nn(CCCC(=O)Nc2ccc(Br)cc2F)c(C)c1[N+](=O)[O-]
i	0.09	CCn1c(=O)c(=O)[nH]c2cc(C(=O)NC3CCCc4ccccc43)ccc21 (stereo not given)
i	0.17	CN1C(=O)/C(=N\OC(=O)c2ccccc2Cl)c2ccccc21
i	0.18	O=C(NCc1ccco1)/C(=C\c1cccnc1)NC(=O)c1ccccc1F
i	-0.2	COc1cc(CN(C(=O)c2cc3ccccc3oc2=O)C2CCS(=O)(=O)C2)cc(OC)c1OC (stereo not given)
i	0.53	O=C(CN1CCOCC1)Nc1ccccc1C(=O)Nc1ccccc1
i	0.25	CON1C(=O)C(=O)N(OC)C(C)(C)C1C (stereo not given)
i	4	CNC(=O)c1cc(OCC(F)(F)F)ccc1OCC(F)(F)F
i	-1.3	N#C/C(=C\c1ccc2c(c1)OCCO2)C(=O)Nc1nccs1
i	-0.88	O=C(NCc1cc2ccccc2[nH]1)c1ccccc1F
i	-2.8	CCC(NC(=O)C1CCCC1)c1ccccc1 (stereo not given)
i	-0.53	COc1cccc(/C=N/N2CCN(Cc3ccccc3)CC2)c1O
i	2.1	CCCC1=NN2C(=N)/C(=C\c3ccc(SCc4ccco4)o3)C(=O)N=C2S1
i	1.3	Cc1cccc(N2CCN(C(=O)c3ccc(NS(=O)(=O)c4c(C)noc4C)cc3)CC2)c1C
i	1.9	Cc1ccc(N/C=C(\C#N)c2ccc(OCCCF)cc2)cc1

# Continued, starting with the last 2 of the part before.
KCNQ2 inh	KCNQ2 inh baseline	mol
i	1.3	Cc1cccc(N2CCN(C(=O)c3ccc(NS(=O)(=O)c4c(C)noc4C)cc3)CC2)c1C
i	1.9	Cc1ccc(N/C=C(\C#N)c2ccc(OCCCF)cc2)cc1
i	-0.34	C=CCn1c(SCC(C)=O)nnc1-c1ccc2ncccc2c1
i	0.01	CN(C)CCCNC(=S)Nc1ccc(-c2ccccc2)cc1
i	-0.69	FC(F)(F)COc1cc(-c2nnc(SCc3ccccc3)n2Cc2ccco2)cc(OCC(F)(F)F)n1
i	0.19	CCOc1ccccc1NC(=O)c1cccc(NC(=O)CC(c2ccccc2)c2ccccc2)c1
i	0.09	Cn1c(Br)nc2c1c(=O)n(CC(O)COc1ccccc1)c(=O)n2C (stereo not given)
i	1.7	N#CCc1nn2c3c(cnc2c1C#N)C(=O)CCC3
i	-0.54	COC(=O)c1ccc(NC(=O)CSc2nnc(Cc3cccn3C)n2-c2ccc(F)cc2)cc1
i	-0.5	Cc1cc(C)nc(SCC(=O)c2ccc(F)cc2)n1
i	-0.36	CC(=O)C1=C(NC(=O)c2ccc(F)cc2)CC2C1C2(C)C (stereo not given)
i	3.1	O=C(C1CC1)N1CCc2cc(Br)cc(S(=O)(=O)N3CCN(c4ccccn4)CC3)c21
i	-0.06	COC(=O)N/N=C/c1cc(OC)c(O)c([N+](=O)[O-])c1
i	-0.45	CC(C)C(=O)NC(NC(=S)NC1CCS(=O)(=O)C1)C(Cl)(Cl)Cl (stereo not given)
i	0.36	CCOC(=O)C(NC(=O)c1ccccc1)(Nc1cccc(C)n1)C(F)(F)F (stereo not given)
i	-0.9	CN1CCCCCC1=NC1=C(C#N)CCCC1
i	-0.64	O=C(CSCc1ccc(Br)cc1)N1CCCC1
i	3.7	CC(=O)NS(=O)(=O)c1ccc(N)cc1
i	1.5	O=S(=O)(c1ccccc1)c1nc(-c2ccccc2)oc1NCCCN1CCOCC1
i	0.64	Nc1nc2c(ncn2COC(CO)CO)c(=O)[nH]1
i	-0.26	C/C(=N\NC(=O)c1ccc(Cn2cc(Br)cn2)o1)c1cccc(NC(=O)C(C)(C)C)c1
i	-1.6	Cc1ccc(C(=O)Nc2cccc(C(=O)N/N=C/c3ccc(F)cc3)c2)cc1
i	-1.9	Cc1cccc2c(N=NC(=O)C(C)n3cnc4ccccc4c3=O)c(O)[nH]c12 (stereo not given)
i	-1.5	CCCCCCn1c(CN2CCC(C)CC2)nc2c1c(=O)n(C)c(=O)n2C
i	0.54	O=C(/C=N/O)NCc1cccnc1
i	-1.2	CCCC(C)NC(=O)COC(=O)c1cccc(NS(C)(=O)=O)c1 (stereo not given)

# Some of the compounds tested; rates above refer to the full screens.
